Bioassay records (PubChem)
PMP22 txn prim: Cell-based coincidence reporter assay to measure PMP22 gene transcription in S16 Pmp22-F2sN cells - Primary screen | S16 Pmp22-F2sN Schwann cells (luciferase reporters placed in the Pmp22 gene), FLuc/NLuc coincidence luminescence, 24 h | Potency, µM (doses to about 57.5 µM), without a hit: at the highest dose activity change, negative = inhibition, most hits filed as inhibitors | actives 2% (n = 43,000) | AID 1508649, 2021; active = clear falling dose curves in both reporters; inconclusive = both reporters move, but less clearly or upward; inactive = either reporter flat; the % is the NLuc reporter signal; also: % is scaled to controls: 0 for no effect and ±100 for the full control effect; some results filed as inactive show a strong effect at the top dose
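S16 Schwann cells carrying FLuc/NLuc coincidence reporter in the Pmp22 3' UTR treated with compound 24 h at 37C; FLuc then NLuc luminescence read sequentially by dual-luciferase reagents.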
HTT prom inh: Primary qHTS for Identification of Small Molecule Inhibitors of Huntingtin Promoter Activity; HEK293 HTT promoter firefly luciferase reporter (activity 0% = vehicle and -100% = no light), 24 h; actives 0.93% (n = 48,000); Potency, µM (titrated, usually from 57.5 µM), for inactives: at the top dose activity change, negative = inhibition, usual class: inhibitors; active = well fitted inhibition curve with a large enough effect; inconclusive = small, poorly fitted or top-dose-only effect; inactive = no such curve, though single readings can be large or run the other way; also: nearly all actives have a fitted effect of over 50% in size
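Luminescence was read after Dual-Glo reagent and a 10 min room-temperature incubation. Values were normalized to vehicle (0% activity) and zero RLU (-100% activity). Reporter HEK293 cells had been exposed to compounds (up to 57.5 uM final) for 24 h.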
The depositor's hits bear a star; ? = inconclusive; · = no result given; [ ] = another dose, or the depositor's remark. Potency is read from the fitted curve at half-maximal effect.

SMILES	PMP22 txn prim	HTT prom inh
COc1ccccc1CNC(=O)CSc1nc2nc(C)c(Cc3ccccc3Cl)c(C)n2n1	-0.8%	-23.1%
COc1cccc(C(=O)N(Cc2sccc2C)C2CCS(=O)(=O)C2)c1 (centres undefined)	-5.5%	-9.7%
Cc1cccc(OCC(=O)N(Cc2cccc(Cl)c2)Cc2ccco2)c1C	?	?
O=C(Cn1c(-c2cccs2)cc2cc(Cl)ccc21)N1CCCCC1	?	-19.6%
CCOC(=O)c1ccc(Nc2c(-c3cccc(O)c3)nc3nc[nH]n23)cc1	-22.6%	-22.5%
O=C(c1ccccc1)N(Cc1ccco1)Cc1cccs1	1.3%	-14.4%
O=C(c1ccc(F)cc1)n1nc(-c2ccc(Cl)cc2)nc1NCc1ccco1	?	23.6%
C=CCC(CC=C)(CNC(=O)C(=O)Nc1cc(C)ccc1OC)c1ccc(OC)c(OC)c1	-7.4%	?
COc1ccc(CNS(=O)(=O)c2cc(Br)cc3c2N(C(C)=O)C(C)C3)cc1 (centres undefined)	-41.3%	-19.4%
COC(=O)c1sccc1S(=O)(=O)N(CC(=O)Nc1ccccc1)c1ccccc1	-19.0%	-10.0%
CCOC(=O)c1ccc(N2C(=O)c3n[nH]c(-c4ccco4)c3C2c2ccc(OCC)cc2)cc1 (centres undefined)	?	20µM*
CCCn1c2ccc(F)cc2c2nnc(SCCN(CC)CC)nc21	?	-7.1%
CC[N+](C)(C)c1cccc(O)c1	·	5.4%
COc1ccccc1-c1noc(-c2ccc(NC3CCCCC3)c([N+](=O)[O-])c2)n1	?	-8.1%
CC(=O)OCc1cnc(C)c2oc(=O)c(C(=O)Nc3ccc(C)cc3Cl)cc12	-12.6%	0.8%
CCOC(=O)C1(C)C=C(Nc2ccc(C(=O)O)cc2)C(=O)N1c1ccc(C(=O)O)cc1 (centres undefined)	-0.4%	-5.8%
O=C1N(Cc2ccccc2)c2ccccc2C1(O)c1c[nH]c2ccccc12 (centres undefined)	-17.9%	-20.0%
COc1cc(Cl)c(C)cc1NC(=O)Cn1cc(S(=O)(=O)N2CCN(c3ccccc3F)CC2)c2ccccc2c1=O	0.7%	-5.5%
Nc1c(-c2nc(-c3ccc(F)cc3)cs2)c2ccccn2c1C(=O)c1ccc2c(c1)OCO2	-1.3%	-9.7%
COc1ccc(Nc2nc(-c3cccc(Cl)c3)c3c(n2)-c2ccccc2OC3)cc1	?	-30.7%
CCN(CC)c1nc2ccccc2nc1C(=O)Nc1cccc(C(C)=O)c1	?	-24.5%
CCOc1ccc(CC(=O)NCCS(=O)(=O)N2CCN(c3ccccc3OC)CC2)cc1	-42.7%	?
Cc1nnc(N2CCCC(C(=O)NCCN(C)C)C2)c2nn(-c3ccccc3)c(C)c12 (centres undefined)	-57.6%	5.1%
CC(C)(C)c1ccc(S(=O)(=O)NCc2nc3cccnc3n2Cc2ccccc2Cl)cc1	?	-21.8%
CCN(CCCNC(=O)c1nn(-c2ccc(OC)c(Cl)c2)c(=O)c2c1c1ccccc1n2C)c1ccccc1	6.2%	-10.2%
Cc1cc(-c2ccccc2)nc2cc(C(=O)Nc3cc(C(F)(F)F)ccc3Cl)nn12	-4.0%	9.0%
O=C(c1cccc(Cl)c1)N1CCC(c2nc3ccccc3o2)CC1	-29.8%	-26.0%
CCN(C(=O)CSc1nc(-c2ccccc2)no1)c1cccc(C)c1	12.9µM*	3.16µM*
COc1ccc(CNC(=O)CCCN2C(=O)COc3ccc(C)cc32)cc1	8.5%	13.0%
CCc1cccc(C)c1NC(=O)NC1COc2ccccc2C1 (centres undefined)	-4.4%	-6.9%
O=C(Nc1cc(C(F)(F)F)ccc1Cl)c1cc(S(=O)(=O)NCc2ccccc2)ccc1F	7.8%	-33.0%
Cc1ccc(OCC(=O)OCc2cc(=O)n3ccsc3n2)cc1C	-1.9%	2.6%
CCc1ccccc1NC(=O)CSCc1cnn(-c2ccccc2)c1-n1cccc1	-13.0%	?
COc1ccc(N2CCN(C(c3ccccc3)c3sc4nc(-c5ccco5)nn4c3O)CC2)cc1 (centres undefined)	32.9%	-28.7%
CC(=O)Nc1cc(C(=O)NCc2ccc(F)cc2Cl)ccc1Sc1ccc(Cl)cc1	?	?
Cc1cccc(N2C(=O)CSC23C(=O)N(CC(=O)NCc2ccccc2Cl)c2ccccc23)c1 (centres undefined)	-29.1%	?

Ordered by molar mass (low to high): some entries from above.
SMILES	PMP22 txn prim	HTT prom inh
CCc1cccc(C)c1NC(=O)NC1COc2ccccc2C1 (centres undefined)	-4.4%	-6.9%
O=C(c1cccc(Cl)c1)N1CCC(c2nc3ccccc3o2)CC1	-29.8%	-26.0%
Cc1ccc(OCC(=O)OCc2cc(=O)n3ccsc3n2)cc1C	-1.9%	2.6%
CCN(C(=O)CSc1nc(-c2ccccc2)no1)c1cccc(C)c1	12.9µM*	3.16µM*
O=C1N(Cc2ccccc2)c2ccccc2C1(O)c1c[nH]c2ccccc12 (centres undefined)	-17.9%	-20.0%
O=C(Cn1c(-c2cccs2)cc2cc(Cl)ccc21)N1CCCCC1	?	-19.6%
O=C(c1ccc(F)cc1)n1nc(-c2ccc(Cl)cc2)nc1NCc1ccco1	?	23.6%
CC(=O)OCc1cnc(C)c2oc(=O)c(C(=O)Nc3ccc(C)cc3Cl)cc12	-12.6%	0.8%
COc1ccc(Nc2nc(-c3cccc(Cl)c3)c3c(n2)-c2ccccc2OC3)cc1	?	-30.7%
CCc1ccccc1NC(=O)CSCc1cnn(-c2ccccc2)c1-n1cccc1	-13.0%	?
COC(=O)c1sccc1S(=O)(=O)N(CC(=O)Nc1ccccc1)c1ccccc1	-19.0%	-10.0%
Nc1c(-c2nc(-c3ccc(F)cc3)cs2)c2ccccn2c1C(=O)c1ccc2c(c1)OCO2	-1.3%	-9.7%
CCOc1ccc(CC(=O)NCCS(=O)(=O)N2CCN(c3ccccc3OC)CC2)cc1	-42.7%	?
COc1ccccc1CNC(=O)CSc1nc2nc(C)c(Cc3ccccc3Cl)c(C)n2n1	-0.8%	-23.1%
O=C(Nc1cc(C(F)(F)F)ccc1Cl)c1cc(S(=O)(=O)NCc2ccccc2)ccc1F	7.8%	-33.0%
COc1ccc(N2CCN(C(c3ccccc3)c3sc4nc(-c5ccco5)nn4c3O)CC2)cc1 (centres undefined)	32.9%	-28.7%
COc1cc(Cl)c(C)cc1NC(=O)Cn1cc(S(=O)(=O)N2CCN(c3ccccc3F)CC2)c2ccccc2c1=O	0.7%	-5.5%

Later entries.
SMILES	PMP22 txn prim	HTT prom inh
Cn1c(=O)cc(OCC(=O)N2CCN(c3ccccc3)CC2)c2ccccc21	-17.2%	-5.9%
O=C(Nc1ccc(Br)cc1F)N1CCC2(CC1)Oc1ccccc1C(=O)N2Cc1ccccc1F	?	38.1%[activator]
Cc1ccc(CN2CCCn3nc(C(=O)NCc4ccc(N(C)C)cc4)cc3C2=O)cc1	-19.2%	?
COc1ccc(CC2C(=O)Nc3ccc(Br)cc32)cc1OC (centres undefined)	-3.4%	-12.9%
COc1ccc(NC(=O)CSC2=Nc3ccccc3C3=NC(CC(=O)NCc4ccc(F)cc4)C(=O)N23)cc1 (centres undefined)	-6.3%	-18.8%
CC(C(=O)NCc1ccccc1)n1ccc2cc(S(=O)(=O)N3CCCC3)ccc21 (centres undefined)	?	?
Cc1ccc(CNC(=O)Cn2c(-c3cccs3)cc3cc(Cl)ccc32)cc1	-8.4%	?
CC(C)(C)c1ccc(C(=O)NC2(C(F)(F)F)C(=O)Nc3c2c(=O)[nH]c(=O)n3-c2ccccc2)cc1 (centres undefined)	?	-13.1%[11.5 µM]
CCOc1ccc(CCNC(=O)c2cnc3c(-c4ccc(F)cc4)c(C)nn3c2C)cc1OCC	-15.3%	-6.8%
CCOC(=O)c1ccc(NC(=O)CN2C(=O)c3cccnc3Sc3ccccc32)cc1	-4.5%	21.6%
CN(C(=O)c1cc2nc(-c3ccc4c(c3)OCO4)cc(C(F)(F)F)n2n1)c1ccc(OC(F)(F)F)cc1	-10.0%	6.4%
Cc1ccc(CNc2ccc3cc(S(=O)(=O)N4CCCCC4)ccc3n2)cc1	?	?
CC1CCCCN1Cc1c(O)ccc2c(=O)c(-c3ccc(Cl)cc3)coc12 (centres undefined)	-21.3%	29.5%
Cc1c2cnn(CC(=O)NC(C)C)c(=O)c2c(C)n1Cc1ccccc1Cl	-11.9%	24.3%
CCCCn1cc(S(=O)(=O)c2ccc(F)cc2)c(=O)c2ccccc21	-17.4%	-23.0%
O=C(CSc1nc2c(oc3ccccc32)c(=O)n1Cc1ccco1)Nc1ccccc1	-37.9%	-5.0%
COC(=O)c1ccc2nc(C)cc(Nc3cccc(Cl)c3C)c2c1	?	-26.1%
CCOC(=O)c1ccc(NC(=O)CC2NCCNC2=O)cc1 (centres undefined)	-35.5%	15.1%
COc1ccc(-c2c(C)nn3c(C(F)(F)F)cc(-c4ccccc4)nc23)cc1	-18.5%	1.9%
COc1cc(CNCCSc2nnnn2C)ccc1OCc1ccccc1	-47.5%	9.4%
CCCc1cc(=O)[nH]c(SCc2nc(-c3ccc(OC)cc3)no2)n1	2.5%	5.3%
COc1ccc(CCNC(=O)CCc2c(C)c3cc4c(C)c(C)oc4cc3oc2=O)cc1OC	-86.2%	5.5%
Cc1cccc(-c2nc3c4ccccc4nc(NCCc4ccccc4)n3n2)c1	3.1%	41.8%[activator]
CC(C)c1ccc(NC(=O)C2CCCN(S(=O)(=O)c3ccc4[nH]c(=O)oc4c3)C2)cc1 (centres undefined)	0.3%	-20.7%
Oc1ccc2ccccc2c1SSc1c(O)ccc2ccccc12	·	?
O=C(Nc1ccc(F)cc1)c1oc2ccccc2c1NC(=O)C1CCCCC1	1.7%	-22.0%
Cc1ccc2oc(-c3ccc(NC(=O)c4oc5ccc(Cl)cc5c4C)cc3)nc2c1	2.6%	5.8%
O=C(CS(=O)(=O)c1cccc2nsnc12)N1CCN(c2ccc(F)cc2)CC1	-10.7%	-15.3%
Cc1ccc(NC(=O)c2sc3nc(-c4ccc(F)cc4)ccc3c2N)cc1F	-61.0%	0.4%
Cc1cc(F)ccc1NS(=O)(=O)c1c(C)nc2scc(C)n2c1=O	?	-24.3%
CCOC(=O)c1cc(-c2ccccc2)n(CCC(=O)NCCc2ccc(OC)c(OC)c2)c1C	-0.8%	?
C#CCOc1ccc(C2C(C(=O)OC)=C(C)NC3=C2C(=O)c2ccccc23)cc1OCC (centres undefined)	?	-27.8%
CCOc1ccc(NC(=O)CN2C(=O)C3(SCC(=O)N3c3ccc(F)cc3)c3ccccc32)cc1 (centres undefined)	-5.4%	-12.4%
Cc1ccc(CNC(=O)CCCN2C(=O)CCn3nc(-c4cn(C)c5ccccc45)cc32)cc1	10.5%	0.0%
CCOC(=O)C1CCCN(C(=O)C2CCN(c3nnc(C)c4c(C)n(-c5ccccc5)nc34)CC2)C1 (centres undefined)	12.9%	-11.9%
COc1ccc(-c2cc(C)no2)cc1S(=O)(=O)N1CCc2ccccc21	-16.7%	-25.0%
COC(=O)Cc1c(C)c2ccc3c(c2oc1=O)CN(Cc1ccccc1Cl)CO3	-50.6%	-22.6%
Cc1cccc(C(=O)N2CCC(N3CCN(Cc4ccc(F)cc4)C(=O)C3=O)CC2)c1	3.0%	-0.1%[11.5 µM]
Cc1cccc(NC(=O)NC2COc3ccccc3C2)c1C (centres undefined)	?	4.2%
COc1ccc(CCC(=O)Nc2nc3ccc(Cl)cc3s2)cc1OC	·	?
Cc1ccc(Cl)cc1N1CCN(CCNC(=O)Nc2ccccc2Cl)CC1	?	?
CC(=O)Nc1ccc(NC(=O)C2(c3cccs3)CCOCC2)cc1	1.0%	-5.6%
COc1ccc(NC(=O)c2oc3c(c2C)-c2nn(Cc4c(F)cccc4Cl)cc2CC3)c(OC)c1	-47.3%	-6.1%
Cc1cc(Br)cc(C)c1OCC(=O)Nc1ccc(S(=O)(=O)Nc2ncccn2)cc1	-1.5%	-11.4%
O=C(O)c1ccccc1C(=O)Nc1ccc(Br)c2cccnc12	-22.1%	12.3%
